# miR-21 reporter: miR-21 reporter, rising signal | HeLa miR-21 FLuc reporter, luciferase, 48 h | Potency, µM (highest dose often 38.3 µM), without a hit: top-dose reporter change, positive = more light | 340,000 tested, under 10 active | AID 2288; active = well fitted rising curve with a large enough effect; inconclusive = small, poorly fitted or top-dose-only effect; inactive = no such curve, though single readings can be large or run the other way;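 note: % of control where 0% means no effect; miR-21 action dims this reporter so a rising signal means less miR-21 action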
#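 HeLa cells stably expressing CMV-driven firefly luciferase with a downstream miR-21 binding sequence, endogenously expressing miR-21, were treated with titrations (up to about 40uM final) for 48 hours at 37 degree Celsius. Luciferase luminescence was read after lysis.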
# Rango dissoc inh: inhibitors of RanGTP-induced Rango-importin beta complex dissociation; 340,000 compounds, 0.071% hits; Potency, µM (series often up to 46.1 µM), for the others: at the highest dose activity change, negative = inhibition; O95149+P62826; AID 540253; Biochemical FRET Rango-importin beta, RanGTP-induced dissociation; active means falling FRET ratio curve, often poorly fitted, with flat reads before Ran was added; inconclusive means other falling curves, or compound fluorescence or quenching; inactive means flat or rising ratio curve;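 note: potency is the fitted concentration of half-maximal effect; % of control where 0% means no effect; nearly all actives have a fitted effect of over 45% in size; -100% = wells without RanGTP and RCC1; the record marks most hits as doubtful in a second field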
#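 Rango (0.1 uM)–importin beta (0.25 uM) complex; RanGTP-RCC1 trigger; 45 min RT; CFP/YFP FRET read.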
# Rango complex inh: Rango-importin beta binding inhibition | Potency, µM (highest dose often 92.2 µM), without a hit: at the highest dose inhibition of complex formation | AID 540263 | 340,000 compounds, 0.031% hits | Q14974 | Rango CFP/YFP FRET sensor + importin beta, 45 min; active = rising FRET ratio curve, often small or poorly fitted; inconclusive = mostly compound fluorescence or quenching in the first reads; inactive = flat curves in all reads;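 note: potency is the fitted concentration of half-maximal effect; 0% = DMSO wells and 100% = buffer wells lacking importin beta; nearly all actives have a fitted effect of over 15% in size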
# Target sequence (Q14974 whole entry, looked up): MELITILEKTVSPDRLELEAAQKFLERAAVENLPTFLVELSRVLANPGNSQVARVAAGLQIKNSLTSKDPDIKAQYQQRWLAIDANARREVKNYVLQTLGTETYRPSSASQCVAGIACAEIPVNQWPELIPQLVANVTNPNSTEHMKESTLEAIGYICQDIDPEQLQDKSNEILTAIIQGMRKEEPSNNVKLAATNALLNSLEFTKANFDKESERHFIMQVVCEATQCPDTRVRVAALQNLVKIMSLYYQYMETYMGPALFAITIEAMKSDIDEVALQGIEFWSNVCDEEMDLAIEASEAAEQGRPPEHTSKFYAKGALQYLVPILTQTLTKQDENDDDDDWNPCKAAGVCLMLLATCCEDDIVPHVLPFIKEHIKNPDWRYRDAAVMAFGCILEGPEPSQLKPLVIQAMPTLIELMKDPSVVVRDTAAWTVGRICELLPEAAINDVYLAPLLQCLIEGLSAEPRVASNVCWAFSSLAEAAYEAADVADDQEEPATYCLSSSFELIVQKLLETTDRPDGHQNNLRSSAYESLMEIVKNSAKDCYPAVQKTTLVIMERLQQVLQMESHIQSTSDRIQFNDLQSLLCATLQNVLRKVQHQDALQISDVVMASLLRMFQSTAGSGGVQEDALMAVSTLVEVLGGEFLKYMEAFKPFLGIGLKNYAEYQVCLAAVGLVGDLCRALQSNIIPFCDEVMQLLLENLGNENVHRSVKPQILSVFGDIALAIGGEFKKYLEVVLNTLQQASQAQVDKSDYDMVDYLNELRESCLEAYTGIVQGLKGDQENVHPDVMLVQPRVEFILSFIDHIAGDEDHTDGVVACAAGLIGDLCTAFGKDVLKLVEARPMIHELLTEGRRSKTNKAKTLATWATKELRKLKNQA
#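 FRET biosensor (snurportin 1 IBB flanked by EYFP and cerulean), 50 nM, with compound 5 min, then 0.125 microM importin beta in PBS, 1 mM DTT, 0.02% Tween-20, 0.1% BSA. CFP/YFP ratio read after 45 min at room temperature; pre-read flags interference.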
# GLA inh pH 4.5: blocks human alpha-galactosidase A at pH 4.5 | AID 1467 | P06280 | 230,000 tested, under 10 active | activity change, negative = inhibition, % at 105 µM | purified enzyme, 4-MU-alpha-Gal fluorescence, pH 4.5; inconclusive = small, poorly fitted or top-dose-only inhibition, or a rising curve; inactive = flat fitted curve, though single readings scatter; no compound was filed as active;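 note: 0% = full activity with enzyme and -100% = basal without enzyme; dose as in the result columns while the protocol names 77 µM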
# * = called active by the depositor; ? = inconclusive; . = no result given. Only part of the results is shown; count on the stated rates, not on these rows.
SMILES,miR-21 reporter,Rango dissoc inh,Rango complex inh,GLA inh pH 4.5
COCCCNC(=O)CCc1c(C)nc2c(c(C)nn2-c2ccc(C)cc2)c1C,0.4%,-19.9%,-5.2%,.
Cc1sc2ncnc(SCC(=O)NC(=O)c3cccn3C)c2c1C,-3.3%,15.3%,-6.1%,1.3
CN1CCC(N(C)C(=O)c2ccccc2F)CC1,-1.0%,-11.1%,-3.9%,.
CCc1ccc(CNc2ccc3c(c2)ncn3CC)cc1,-65.1%,0.9%,-2.5%,.
S=C(NCCc1cccc(Cl)c1)NC1CCCCC1,-59.0%,26.4%,0.0%,.
CCOC(=O)N1CCN(c2nc3c(C)cccn3c(=O)c2C=O)CC1,-3.6%,0.3%,2.1%,.
COC(=O)c1ccc2c(=O)n(-c3ccccc3)c(=S)[nH]c2c1,-1.3%,-6.4%,2.6%,-3.9
O=C(CSc1nnc(NC(=O)C2CC(=O)N(c3ccc(F)cc3)C2)s1)NC1CCCC1 (centres undefined),-9.7%,-3.9%,0.4%,.
CCC(C)n1c(=N)c(C#N)cc2c(=O)n3ccccc3nc21 (centres undefined),-3.8%,?,?,-5.1
CC(C)C(=O)N1CCC(c2nc(-c3ccc(S(=O)(=O)N4CCCC4)cc3)no2)CC1,-1.4%,-3.1%,-6.9%,-22.2
O=C(NCCc1ccccc1)C1CCCN1S(=O)(=O)c1ccccc1 (centres undefined),2.6%,0.7%,2.6%,1.5
CCOc1ccc(/C=C2/C(=N)N3OC(C)=CC3=NC2=O)cc1OC,1.0%,20.6%,2.1%,0.9
O=C1OCCC1Sc1nnc(-c2ccc(Br)cc2)o1 (centres undefined),11.9%,-5.7%,2.3%,-5.9
CC(C)Oc1cccc(C(=O)Nc2ccc(NC(=O)c3ccco3)cc2)c1,-21.3%,-18.2%,-0.2%,-7.5
COc1ccccc1/C=C/C(=O)NC(=S)N1CCN(C)CC1,-9.4%,-6.0%,-1.0%,.
COCc1cc(C)nc(OCC(=O)N/N=C/c2ccc(-c3cc([N+](=O)[O-])ccc3C)o2)c1C#N,0.3%,4.8%,0.7%,-2.7
O=C(Nc1ccc(Cl)c(Cl)c1)c1ccc(Cn2cc(Cl)cn2)cc1,-9.7%,-0.1%,4.7%,4.4
CCCCCn1c(=O)c(Cc2ccccc2)c(O)c2ccccc21,2.2%,-10.5%,2.9%,0.9
O=C1c2cc([N+](=O)[O-])ccc2-c2ncccc21,-0.6%,-1.1%,-1.4%,-14.4
CCS(=O)(=O)c1cc([N+](=O)[O-])c(Sc2ccccc2N)s1,-37.7%,?,?,-0.2
c1ccc2c(-c3nn4nnnc4c4ccccc34)cccc2c1,-15.8%,0.9%,1.5%,-3.5
Cc1ccccc1NC(=O)c1ccc(C)c(S(=O)(=O)N2CCN(C)CC2)c1,-4.0%,-3.2%,7.2%,.
COCCN1CCN(c2cc(-c3ccccc3)nc3cc(-c4cccc(F)c4)nn23)CC1,?,?,?,-15.4
CCCC(=O)NC(=S)Nc1c(C)cc(Br)cc1C,.,-2.5%,11.1%,.
CC(=O)Nc1cccc(NC(=O)CSc2nnc(Cc3cccn3C)n2-c2ccc(F)cc2)c1,-0.1%,0.6%,-0.4%,7.0

# Another view of 7 compounds above.
mol	miR-21 reporter	Rango dissoc inh	Rango complex inh	GLA inh pH 4.5
CC(C)C(=O)N1CCC(c2nc(-c3ccc(S(=O)(=O)N4CCCC4)cc3)no2)CC1	-1.4%	-3.1%	-6.9%	-22.2
O=C(NCCc1ccccc1)C1CCCN1S(=O)(=O)c1ccccc1 (centres undefined)	2.6%	0.7%	2.6%	1.5
CCOc1ccc(/C=C2/C(=N)N3OC(C)=CC3=NC2=O)cc1OC	1.0%	20.6%	2.1%	0.9
O=C1OCCC1Sc1nnc(-c2ccc(Br)cc2)o1 (centres undefined)	11.9%	-5.7%	2.3%	-5.9
CC(C)Oc1cccc(C(=O)Nc2ccc(NC(=O)c3ccco3)cc2)c1	-21.3%	-18.2%	-0.2%	-7.5
COc1ccccc1/C=C/C(=O)NC(=S)N1CCN(C)CC1	-9.4%	-6.0%	-1.0%	.
COCc1cc(C)nc(OCC(=O)N/N=C/c2ccc(-c3cc([N+](=O)[O-])ccc3C)o2)c1C#N	0.3%	4.8%	0.7%	-2.7

# The results go on.
SMILES,miR-21 reporter,Rango dissoc inh,Rango complex inh,GLA inh pH 4.5
CC1(C)C(C=C(Cl)Cl)C1C(=O)N1CCN(Cc2ccccc2)CC1 (centres undefined),8.2%,-5.5%,0.7%,.
C/C(=N/NC(=O)c1cccc(N2CCCC2=O)c1)c1ccncc1,-39.6%,24.9%,-0.6%,4.0
CC(C)C(=O)Nc1c(C(=O)c2ccc(F)cc2)oc2ccccc12,-5.4%,-24.5%,?,6.6
O=C(O)[C@H](Cc1ccccc1)NC(=O)N1CCN(c2ccccc2)CC1,0.4%,1.5%,3.8%,-5.5
CC(C)Cn1c(SC(C)C(=O)NC2CC2)nnc1-c1ccccc1F (centres undefined),.,-6.3%,-1.3%,.
O=C(NC1CCN(C(=O)Nc2ccc(F)cc2)CC1)c1cccc(F)c1,-1.9%,5.5%,-1.9%,.
CC(=O)Nc1ccc(C(=O)CSc2nnnn2C2CCCC2)cc1,-11.5%,12.7%,-3.5%,-26.2
COc1ccc(Cl)cc1NC(=O)CCN1C(=O)C2C3CCC(C3)C2C1=O (centres undefined),3.9%,6.3%,3.0%,.
Cc1ccc(C2CC(c3ccc(F)cc3)Nc3nc(N)nn32)cc1 (centres undefined),-10.9%,-7.3%,2.0%,2.3
Cc1onc(-c2ccccc2)c1C(=O)Nc1ccc(-c2nnc3n2CCCCC3)cc1,-0.4%,-7.5%,4.2%,4.9
CSc1n[nH]c(NCc2ccc(C)cc2)n1,-45.0%,2.0%,0.3%,1.4
CCOc1ccc(CCNC(=O)CN2C(=O)NC3(CCCc4ccccc43)C2=O)cc1OCC (centres undefined),.,-4.1%,?,.
CCC1(C)NC(=O)N(/N=C/c2cc(OC)c(O)c(OC)c2)C1=O (centres undefined),0.2%,-9.8%,-1.7%,-9.5
COc1ccc(C)cc1NC(=O)C(Sc1nnc(Nc2ccccc2F)s1)c1ccccc1 (centres undefined),0.3%,3.7%,1.3%,-7.4
Cc1cc(C)cc(NC(=S)NCCc2ccc(S(N)(=O)=O)cc2)c1,-2.5%,6.0%,-0.6%,-1.9
O=C(NC(c1ccccc1)c1ccccc1)c1ccc(Br)o1,-7.1%,-1.0%,4.4%,1.8
CCOc1ccc(C(C)=O)cc1COc1ccc(-n2cnnn2)cc1,-9.1%,0.2%,0.0%,-7.8
O=C(O)CCC(=O)N1CCc2cc(S(=O)(=O)NCc3cccs3)ccc21,0.4%,-3.5%,-5.8%,0.6
COC(=O)c1ccc(COC(=O)CNS(=O)(=O)c2ccc(C)cc2)cc1,-18.4%,-0.6%,6.1%,-2.0
COc1ccccc1N1CCN(C(c2cccs2)C(C)NC(=O)c2cccs2)CC1 (centres undefined),2.9%,-11.0%,0.0%,0.9
CC(C)C(=O)Nc1cccc(COc2ccccc2CN(Cc2ccccc2)C(=O)OC(C)(C)C)c1,.,26.8%,-1.3%,.
O=C(CSc1ccc(Br)cc1)NCC(c1cccs1)N1CCOCC1 (centres undefined),.,-11.8%,6.9%,.
COc1ccc2[nH]cc(CCNS(=O)(=O)Cc3ccccc3)c2c1,5.2%,-0.3%,1.6%,-1.4
COc1cccc(C(=O)Nc2nc3ccc(S(C)(=O)=O)cc3s2)c1,-16.9%,-8.3%,1.3%,-6.1
CCN1CCN(Cc2c(O)ccc3c2O/C(=C\C=C\c2ccccc2OC)C3=O)CC1,-28.7%,?,?,-7.1

# Following part
SMILES,miR-21 reporter,Rango dissoc inh,Rango complex inh,GLA inh pH 4.5
COc1ccc(CCNC(=O)c2oc3ccc(OC)cc3c2C)cc1,-11.5%,10.2%,-1.3%,.
O=C(COC(=O)c1c(F)cccc1Cl)NC1CCCC1,-45.5%,23.1%,1.9%,.
COc1ccc(N(CC(=O)NCc2cccs2)S(=O)(=O)c2c(C)nn(C)c2C)cc1,-1.3%,-8.3%,1.1%,-0.4
O=C1c2cc(O)c(O)cc2OC(c2ccc(O)c(O)c2)C1O (centres undefined),.,-5.5%,?,.
Cc1ccccc1S(=O)(=O)/N=C(/c1ccccc1)N(C)C,-1.4%,14.9%,1.0%,.
O=C(CCNC(=O)c1ccccc1)NCCc1ccc(Cl)cc1,-3.0%,-5.1%,-3.6%,.
CCc1cc(-c2n[nH]c(=S)n2-c2ccccc2C)cs1,-13.4%,-1.4%,?,-4.0
CC(=O)N1CCc2c(sc(NC(=O)CN3C(=O)c4ccccc4C3=O)c2C(N)=O)C1,-1.6%,-13.9%,2.1%,-4.8
CCCc1cc(=O)n2[nH]c(NC(=O)c3ccco3)nc2n1,8.9%,-6.9%,0.8%,.
COc1ccc(Cc2nnc(NC(=O)C(C)(C)C)s2)cc1,-18.3%,-7.2%,-3.2%,-23.8
O=C(CCc1ccccc1)Nc1nccs1,-28.1%,-12.5%,5.6%,.
CC(=O)Nc1sc2c(c1C(c1ccccc1Cl)N1CCN(CCO)CC1)CCCC2 (centres undefined),17.8%,-0.8%,-4.5%,-6.1
O=C(Nc1cccnc1)c1ccc2snnc2c1,-4.4%,4.9%,0.5%,7.7
Cc1cccc(C(=O)N[C@H](C(=O)Nc2ccc3c(c2)OCO3)C(C)C)c1,.,1.7%,1.9%,.
O=C(CCN1CCC(c2ccc(Cl)s2)=N1)c1ccc(Cl)s1,-0.8%,?,?,0.5
COc1ccc(NC(=S)N2CCN(C/C=C/c3ccccc3)CC2)c(OC)c1,1.0%,30.3%,?,1.9
C=CCn1c(SCCC(=O)O)nc2c1c(=O)n(C)c(=O)n2C,-0.4%,-1.3%,-0.7%,-5.5
CCOC(=O)c1c(-c2cccs2)csc1NC(=O)CN1CCOCC1,-16.2%,-7.5%,-1.9%,-6.2
CCOC(=O)c1ccc(S(=O)(=O)N2CCN(CC(O)COc3cccc(C(C)=O)c3)CC2)cc1 (centres undefined),-1.3%,14.9%,-2.2%,.
COc1ccc(S(=O)(=O)N2CCOC2CNC(=O)C(=O)NCC(C)C)cc1OC (centres undefined),1.4%,0.8%,-0.3%,.
Nc1ncnc2c1C1(CCCCC1)Cc1ccccc1-2,-5.7%,4.6%,-0.1%,-17.0
CCN(CC)S(=O)(=O)c1ccc(C(=O)Nc2cc(S(=O)(=O)N3CCOCC3)ccc2O)cc1,.,39.8%,-0.6%,.
O=C(Nn1c(-c2ccncc2)nc2ccccc2c1=O)c1ccccc1Br,-3.4%,5.4%,-2.4%,-4.4
CC(NC1CCN(Cc2ccccc2)CC1)c1ccc(F)cc1 (centres undefined),1.3%,7.2%,-1.4%,.
O=C(CSc1nc2c(cnn2-c2ccccc2)c(=O)[nH]1)NCC1CCCO1 (centres undefined),.,-1.6%,0.0%,.

# Next section.
SMILES,miR-21 reporter,Rango dissoc inh,Rango complex inh,GLA inh pH 4.5
Cn1c(Cn2c(=O)sc3ccccc32)nnc1SCC(=O)N1CCOCC1,-1.9%,-3.1%,-1.8%,-8.6
CN1C(=O)N2CN(C3CCCCC3)CN3C(=O)N(C)C1C23 (centres undefined),-0.2%,6.5%,?,-4.5
COc1ccc(S(=O)(=O)N(C)c2c(C)n(C)n(-c3ccccc3)c2=O)cc1OC,-6.5%,-10.3%,0.4%,-9.7
CCN(CC(=O)Nc1ccc(S(=O)(=O)N2CCOCC2)cc1)Cc1ccccc1,.,-4.7%,2.2%,.
O=c1c(CN2CCN(c3cccc(Cl)c3)CC2)coc2c(Cl)cc(Cl)cc12,-5.2%,-6.6%,3.0%,6.4
O=C(O)C1C(=O)NCC1c1ccccc1 (centres undefined),-2.1%,2.1%,1.2%,-7.3
O=C(CCN1CCN(S(=O)(=O)c2ccc(F)cc2)CC1)Nc1ccccc1F,0.7%,-0.9%,-0.3%,.
Cc1ccc(-c2[nH]ncc2C(=O)c2cccc(F)c2)c(O)c1,-9.3%,-15.5%,0.9%,.
CCCc1cc(=O)[nH]c(SCc2cc(C(=O)OC)c(C)o2)n1,-15.7%,-6.5%,4.9%,10.5
CCSC(SCC)[C@H](O)[C@@H](O)[C@H](O)[C@H](O)CO,0.7%,-6.6%,4.7%,-4.8
N#Cc1cn(CC(=O)N2CCCC2)c2ccccc12,-6.2%,-1.8%,-1.4%,2.7
O=C(N/N=C/c1c[nH]c2ccccc12)c1ccn[nH]1,-34.3%,3.2%,-2.3%,1.0
